Calb FLC: C. albicans growth inhibition with fluconazole, primary screen, CaCi-2 strain, Alamar Blue fluorescence | C. albicans CaCi-2 (fluconazole-resistant clinical isolate) + fluconazole, 48 h | growth inhibition, % (no concentration beside the values) | 300,000 compounds, 0.57% hits | AID 1979, 2009;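 active = most replicates above 75%; inconclusive = exactly half above 75%; inactive = most below 75%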;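 also: all wells also contain fluconazole at 8 µg/ml as a sub-toxic cotreatment; 0% = median of DMSO wells and 100% = median of geldanamycin control wells; wells of about 8 µL received 7.5 nL stock; the first replicate is given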
T cruzi repl: inhibitors of intracellular T. cruzi growth, primary screen, luminescence, NIH3T3 host cells; T. cruzi beta-gal in NIH3T3, 90 h; inhibition, % (test concentration not listed); 300,000 compounds, 1.4% hits; AID 1885, 2009;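 active = mean inhibition across valid replicates above about 55%, limit read from the data; inconclusive = mean below that limit but half or more replicates reach it; inactive = mean below it, under half of replicates reach it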;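 also: signal also drops with host cell toxicity which is not excluded here; 0% = plate median of DMSO wells and 100% = zero luminescence signal; higher percent means less beta-gal luminescence so fewer parasites; stock transfer was 50 nL into about 50 µL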
Ecoli rRNA inh: reduced GFP signal of wild-type E. coli, primary screen, bacterial rRNA inhibitor project, GFP/RFP fluorescence, OD600, single point; GFP signal change (wild-type ribosome), % (test concentration not listed); 350,000 compounds, 1.6% hits; E. coli WT GFP vs humanized-ribosome RFP mutants, 24 h; hits give low values; DMSO median 0, no signal -100;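 active = significant combined selectivity score with lowered wild-type GFP, culture density cut under 30%, mutant RFP and density less affected; inactive = any of these conditions unmet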; also: one replicate is shown; some compounds called inactive have numbers as strong as hits
RanGTP-Imp inh: inhibitors of RanGTP-importin-beta interaction, primary screen, biochemical, FRET, CFP-Ran, YFP-importin-beta, homogeneous; 300,000 compounds, 1.1% hits; cell-free CFP-Ran/YFP-importin-beta FRET ratio; inhibition, % (concentration not given with the values); Ran GTPase (GTP-bound) - importin-beta complex; AID 2216, 2009;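 active = most replicates above 15%; inconclusive = exactly half above 15%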;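 also: 0% = DMSO wells and 100% = Ran loaded with GDP instead of GTP; wells of about 40 µL received 100 nL stock; the first replicate is given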
ALR H2O2 inh: inhibitors of human ALR sulfhydryl oxidase, primary screen, biochemical, H2O2 detection, HRP-luminol luminescence, single point; purified ALR, DTT oxidation; inhibition, % (test concentration not listed); 290,000 compounds, 3.8% hits; AID 485317, 2010;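 active = mean and each replicate at 75% or more; inconclusive = only one of the two met; inactive = neither met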;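 also: stock transfer was 7.5 nL into about 7.5 µL; 0% = neutral wells and 100% = wells with inactivated enzyme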
Target sequence (P55789 whole entry, looked up): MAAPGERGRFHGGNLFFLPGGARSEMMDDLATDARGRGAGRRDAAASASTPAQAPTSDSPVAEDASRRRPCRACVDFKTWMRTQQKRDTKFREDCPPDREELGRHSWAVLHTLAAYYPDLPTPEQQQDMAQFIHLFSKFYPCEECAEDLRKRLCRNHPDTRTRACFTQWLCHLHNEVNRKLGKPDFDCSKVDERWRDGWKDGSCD
FGF22 binding: binders of human FGF22 protein, primary screen, FGF22 synaptogenesis inhibitor project, biophysical, thermal shift, single point. calls only at 9.99 µM. 340,000 compounds, 1.5% hits. recombinant FGF22 thermal shift, SYPRO orange fluorescence; percent of sucrose octasulfate shift, DMSO zero. Fibroblast growth factor 22 (Homo sapiens), Q9HCT0. AID 651658, 2012;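 active = melting point raised past a set limit in the mean and every replicate; inconclusive = no clear call; three in four hits are not shown here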
Target sequence (Q9HCT0 whole entry, looked up): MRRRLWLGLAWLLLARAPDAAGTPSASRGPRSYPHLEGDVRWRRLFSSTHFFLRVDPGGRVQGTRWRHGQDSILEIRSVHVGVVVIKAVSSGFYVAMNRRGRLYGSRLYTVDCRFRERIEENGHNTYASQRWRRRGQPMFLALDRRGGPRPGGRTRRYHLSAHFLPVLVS
Beta apoptosis: inhibitors of cytokine-induced beta cell apoptosis, primary screen, luminescence | protection from apoptosis, % (no concentration beside the values) | AID 435005, 2010 | 300,000 compounds, 0.8% hits | INS-1E cytokine-induced death, ATP luminescence, 48 h; percent of positive-control rescue, neutral wells zero;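 active = all replicates at 75% or more, or half of them and the mean; inconclusive = half reach 75% but not the mean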;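 also: 0% = cytokine-treated negative control wells and 100% = positive control rescue; higher means more ATP so stronger rescue from cytokine killing; wells of about 40 µL received 100 nL stock; the first replicate is given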
AF4-AF9 inh: inhibitors of AF4 peptide binding to AF9, primary screen, biochemical, AlphaScreen, biotin-AF4 peptide, FLAG-AF9, single point | Protein AF-9 (Homo sapiens), P42568 | inhibition, % at 10 µM | 350,000 compounds, 0.47% hits | AID 651704, 2012;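 active = every replicate reaching a set inhibition limit, whatever the replicate mean, cut at about 25% in these data; inconclusive = mean inhibition reaches that limit but some replicates miss it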;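 also: 0% = plate neutral control median and 100% = total signal loss; the record names both 10 and 1 µM as test concentration; the first replicate is given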
Target sequence (P42568 whole entry, looked up): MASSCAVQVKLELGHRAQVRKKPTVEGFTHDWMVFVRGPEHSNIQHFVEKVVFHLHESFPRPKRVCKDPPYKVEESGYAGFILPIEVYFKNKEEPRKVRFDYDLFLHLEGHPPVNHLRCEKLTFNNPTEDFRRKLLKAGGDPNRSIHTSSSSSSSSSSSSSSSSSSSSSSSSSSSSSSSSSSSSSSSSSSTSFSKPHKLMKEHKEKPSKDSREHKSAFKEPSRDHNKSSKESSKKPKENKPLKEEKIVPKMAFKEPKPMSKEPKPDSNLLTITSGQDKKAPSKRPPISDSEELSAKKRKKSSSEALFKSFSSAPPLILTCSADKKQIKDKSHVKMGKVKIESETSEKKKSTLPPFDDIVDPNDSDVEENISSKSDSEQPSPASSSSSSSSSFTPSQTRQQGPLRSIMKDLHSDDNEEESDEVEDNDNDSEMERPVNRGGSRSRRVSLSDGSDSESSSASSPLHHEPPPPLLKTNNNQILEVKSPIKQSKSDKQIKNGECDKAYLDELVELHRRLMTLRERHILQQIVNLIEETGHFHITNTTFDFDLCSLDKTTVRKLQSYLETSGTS
Ecoli rRNA inh OD600: second read-out of Ecoli rRNA inh, no call of its own (marks repeat the call); OD600 change, %; measured here: OD600 growth;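 optical density of the mix in the first replicate; 0 = DMSO median and -100 = no signal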
Ecoli rRNA inh RFP: second read-out of Ecoli rRNA inh, no call of its own (marks repeat the call); RFP signal change, %; measured here: RFP humanized mutant strains;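 first replicate; 0 = DMSO median and -100 = no signal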
The depositor's hits bear a star; i = inactive; ? = inconclusive; nt = not tested or not shown; & = joins results of further samples. These rows are one share of the data. The share of hits here may be higher or lower than overall.

The first 3 entries as a preview:
SMILES | Calb FLC | T cruzi repl | Ecoli rRNA inh | Ecoli rRNA inh OD600 | Ecoli rRNA inh RFP | RanGTP-Imp inh | ALR H2O2 inh | FGF22 binding | Beta apoptosis | AF4-AF9 inh
Cc1ccc(CN2CCNC(=O)C2CC(=O)N(C)Cc2cnccn2)cc1 (stereo not given) | -3.4 | -0.7 | 3.3 | 3.0 | -3.7 | 3.0 | -107.0 | i | -7.0 | -0.4
COc1ccc(S(=O)(=O)N2CCCCC2)cc1NC(=O)C1CC(=O)N(c2ccc3c(c2)OCCO3)C1 (stereo not given) | 18.8 | -2.9 | -2.8 | -2.5 | -1.9 | 2.0 | -4.2 | nt | 0.0 | 2.7
O=C(CCCN1C(=O)S/C(=C\C=C\c2ccccc2)C1=O)Nc1ccc(C(=O)O)cc1 | 5.4 | -5.8 | -5.5 | -5.2 | 5.9 | 4.2 | 11.2 | i | -7.5 | 6.1

The listing, previewed entries included:
SMILES | Calb FLC | T cruzi repl | Ecoli rRNA inh | Ecoli rRNA inh OD600 | Ecoli rRNA inh RFP | RanGTP-Imp inh | ALR H2O2 inh | FGF22 binding | Beta apoptosis | AF4-AF9 inh
Cc1ccc(CN2CCNC(=O)C2CC(=O)N(C)Cc2cnccn2)cc1 (stereo not given) | -3.4 | -0.7 | 3.3 | 3.0 | -3.7 | 3.0 | -107.0 | i | -7.0 | -0.4
COc1ccc(S(=O)(=O)N2CCCCC2)cc1NC(=O)C1CC(=O)N(c2ccc3c(c2)OCCO3)C1 (stereo not given) | 18.8 | -2.9 | -2.8 | -2.5 | -1.9 | 2.0 | -4.2 | nt | 0.0 | 2.7
O=C(CCCN1C(=O)S/C(=C\C=C\c2ccccc2)C1=O)Nc1ccc(C(=O)O)cc1 | 5.4 | -5.8 | -5.5 | -5.2 | 5.9 | 4.2 | 11.2 | i | -7.5 | 6.1
O=C(NCc1ccco1)c1ccc(-c2ccc(Cl)cc2)o1 | 29.5 | 6.4 | -8.5 | -7.0 | -0.9 | 2.9 | -4.0 | i | -3.1 | -0.5
COc1cccc(NC(=O)C2CCN(S(=O)(=O)c3ccc4[nH]c(=O)oc4c3)CC2)c1 | 40.6 | -14.3 | -6.6 | -9.6 | 1.7 | 0.8 | 2.4 | i | 2.9 | -1.2
CN(CC(=O)Nc1ccc(Cl)c(C(F)(F)F)c1)C(=O)C1CSC2(C)CCC(=O)N12 (stereo not given) | 0.6 | 2.0 | -14.7 | -19.9 | 0.8 | nt | 15.9 | i | 1.3 | 0.1
COc1ccc(C)cc1S(=O)(=O)N(CC(=O)O)c1ccc(C)cc1 | -2.2 | -6.2 | nt | nt | nt | -1.5 | -2.0 | nt | 2.3 | nt
O=S(=O)(c1ccc(Cl)cc1)N(CCCN1CCOCC1)Cc1cccs1 | -4.0 | -2.4 | -8.6 | -5.2 | -11.4 | -0.6 | -1.2 | i | -13.3 | 1.0
COc1ccc(/C=N/NC(=O)CCC(=O)Nc2ccc(Br)cc2)c(OC)c1 | 1.8 | 2.6 | 15.4 | 10.7 | 0.8 | -0.1 | 4.2 | i | -11.7 | 0.3
COC(=O)c1ccc2nc(NC(=O)C3CC3)sc2c1 | -10.1 | 46.8 | 2.7 | 10.7 | 0.1 | -0.3 | -0.4 | i | -3.1 | 0.9
Cc1ccccc1NC(=O)CCCN1C(=O)C2CC=CCC2C1=O (stereo not given) | -8.2 | -10.5 | 8.9 | 8.9 | -0.7 | 1.1 | -4.1 | i | -0.9 | -2.8
CCCCNC(=O)CSc1cc(=O)n(C)c2ccccc12 | -14.2 | -8.9 | nt | nt | nt | -2.8 | -8.0 | nt | -3.7 | nt
Nc1nc(Nc2ccccc2)nc(NCCO)c1[N+](=O)[O-] | 13.0 | -6.8 | 7.6 | 15.0 | -0.3 | -2.5 | nt | i | -2.4 | 3.2
CC1=NN(C(=O)c2ccc(Cn3ccc([N+](=O)[O-])n3)cc2)C(O)(C(F)(F)F)C1 (stereo not given) | 8.0 | -23.5 | nt | nt | nt | 0.3 | -10.9 | nt | 9.8 | nt
Cn1nnc2cc(C(=O)NC3CCCCC3)ccc21 | -12.3 | -1.6 | nt | nt | nt | -0.3 | 2.8 | nt | -5.0 | nt
COc1ccc(-c2csc(NC(=O)CCCc3cccs3)n2)cc1 | -38.6 | 3.5 | 0.9 | 5.1 | -4.2 | -1.7 | 0.9 | i | -6.8 | 0.8
Cc1n[nH]c(C)c1S(=O)(=O)N1CCN(C(=O)c2ccco2)CC1 | -7.4 | -43.7 | nt | nt | nt | 3.4 | -1.6 | nt | -3.7 | nt
c1ccc2c(c1)CCOC2CNCCCN1CCCCC1 (stereo not given) | 11.8 | 20.4 | nt | nt | nt | 5.4 | nt | nt | nt | 0.2
Cc1ccc(-c2c(C(=O)N/N=C/c3ccco3)nnn2-c2nonc2N)cc1 | -10.4 | -0.8 | -0.2 | 3.4 | 2.2 | 3.3 | -7.5 | i | 0.8 | -2.8
CCOC(=O)C1CCN(C2=NC(=O)/C(=C/c3ccc(Cl)cc3)S2)CC1 | 7.5 | -12.6 | -13.8 | -38.2 | -3.8 | 1.6 | 96.5* | i | 3.2 | 1.4
CCN(CC)CCNC(=O)c1ccc2c(c1)NC(=O)c1ccccc1S2 | -7.3 | 2.3 | 8.8 | 7.7 | 0.1 | -4.2 | -9.0 | i | 6.4 | 4.6
NS(=O)(=O)c1ccc(NC(=O)CSc2nnc3n2CCCCC3)cc1 | nt | nt | 7.8 | 29.0 | 5.3 | nt | nt | i | -1.9 | -0.8
O=C(COc1ccccc1)Nc1nc(-c2cccnc2)cs1 | nt | nt | 3.1 | 12.8 | -3.3 | nt | 4.2 | i | -3.9 | -7.1
C#CCNC(=O)C1=C[C@H](C(C)(C)C)C[C@H](OCCCCO)O1 | 1.6 | 10.2 | 9.2 | 11.3 | 2.1 | ? | -2.8 | i | 1.0 | -1.5&0.9
CCOC(=O)c1cc2c(nc1NC(=S)Nc1ccccc1)CC(C)(C)OC2 | ? | -5.6 | 1.0 | 12.7 | -1.6 | -1.8 | 2.7 | i | -4.7 | -14.2

(listing goes on)
SMILES | Calb FLC | T cruzi repl | Ecoli rRNA inh | Ecoli rRNA inh OD600 | Ecoli rRNA inh RFP | RanGTP-Imp inh | ALR H2O2 inh | FGF22 binding | Beta apoptosis | AF4-AF9 inh
CC(C)(CNC(=O)c1ccc(NS(=O)(=O)c2ccc(F)c(F)c2)cc1)N1CCOCC1 | -12.1 | -7.1 | 3.4 | 15.3 | 0.3 | 4.3 | -3.9 | i | nt | -1.8
O=C(C1CCCN(S(=O)(=O)c2cnc[nH]2)C1)N1CC(=O)N(CCc2ccccc2)C(=O)C1 (stereo not given) | 1.5 | -3.6 | nt | nt | nt | -3.5 | -9.2 | nt | nt | nt
CCOc1ccc(Nc2nc(Cl)nc(NCCO)n2)cc1 | -1.3 | -13.8 | nt | nt | nt | 0.1 | -1.9 | nt | nt | nt
C=CCNc1nc2ccccc2nc1NS(=O)(=O)c1ccc(OC)cc1 | -3.4 | -3.5 | 1.0 | -6.4 | 0.8 | -2.7 | 70.2 | i | -0.4 | -15.7
Cc1cc(C)c2c(=O)[nH]c(SCc3ccc([N+](=O)[O-])cc3)nc2n1 | ? | -7.5 | 0.9 | -1.3 | 1.8 | 2.9 | -5.8 | i | -4.9 | -1.7
COc1ccc(NC(=O)CC2C(=O)N(C)C(=S)N2CCc2ccccc2F)cc1 (stereo not given) | -5.2 | 19.5 | -13.0 | -11.2 | 2.9 | 3.4 | -23.6 | i | nt | -0.4
COc1ccccc1CN1CCNC(=O)C1CC(=O)NC1CCCCCC1 (stereo not given) | -3.7 | 18.8 | 3.4 | -5.0 | 1.9 | 0.6 | 7.6 | i | -5.0 | 1.8
O=C(Nc1ccccc1)c1cc([N+](=O)[O-])ccc1NC1CCCCC1 | -38.0 | 46.8 | 4.1 | -7.2 | -1.8 | -1.4 | -1.2 | i | 8.0 | 9.7
Clc1ccccc1Nc1nc2ccccc2o1 | nt | nt | -1.9 | -6.1 | -1.1 | nt | -5.9 | i | 18.9 | -6.3
O=C(NCc1ccccn1)c1cc(-c2ccncc2)nc2ccccc12 | 7.1 | 0.1 | 8.5 | -2.0 | 1.7 | 1.7 | -11.9 | i | 5.1 | 0.2
Cc1onc(-c2ccccc2)c1C(=O)Nc1cccc(S(=O)(=O)N2CCCCC2)c1 | nt | nt | 0.5 | -5.5 | 5.6 | nt | 3.2 | i | -7.0 | -3.3
CCCCn1c(N)c(N(CCOC)C(=O)c2cc(C)oc2C)c(=O)[nH]c1=O | -0.7 | -4.8 | 10.3 | 14.8 | -0.4 | nt | 7.1 | i | -0.9 | 9.2
CN1CCN(Cc2cc(=O)oc3ccc(Cl)cc23)CC1 | -4.6 | ? | nt | nt | nt | -1.8 | 9.6 | nt | 0.3 | nt
CNC(=S)N(Cc1ccc(OC)cc1)Cc1cc2cc(C)ccc2[nH]c1=O | -4.7 | 11.2 | 7.8 | 8.3 | 3.0 | 14.2 | -5.5 | i | nt | -3.8
Cc1ccc2c(CC(=O)NCc3cccs3)coc2c1 | -1.0 | -7.7 | 7.6 | 15.7 | -1.2 | -0.1 | -1.8 | i | -1.5 | 2.0
O=C(O)c1ccc2c(c1)C(=O)N(c1cc(C(=O)O)ccc1Br)C2=O | -6.5 | 2.4 | nt | nt | nt | -3.9 | nt | nt | -8.0 | nt
CC(C(=O)N1CCc2ccccc21)N1CCN(Cc2ccc(Cl)cc2)CC1 (stereo not given) | -10.2 | 28.8 | nt | nt | nt | 0.8 | 2.9 | i | -7.9 | 5.7
O=C(CCN1C(=O)/C(=C/C=C/c2ccccc2)SC1=S)Nc1nccs1 | 1.1 | -19.1 | nt | nt | nt | -2.6 | -9.1 | nt | 20.7 | nt
Cc1ccc(-n2ncc3c(N4CCN(c5ccccc5)CC4)ncnc32)c(C)c1 | 54.8 | 19.0 | -3.7 | -5.7 | 3.1 | 1.5 | 3.1 | nt | nt | nt
CC1CCCC(C)N1S(=O)(=O)c1ccc(NC(=O)CNC2CCCC2)cc1 (stereo not given) | 3.0 | 22.9 | 0.4 | 4.9 | 1.8 | 2.1 | 0.6 | i | -3.2 | 1.8
O=[N+]([O-])c1ccc(-c2c(O)c3ccccc3c3nc4ccccc4nc23)cc1 | -1.4 | -21.3 | nt | nt | nt | 4.5 | -5.9 | i | 27.3 | -0.1
O=C(N/N=C/c1ccccn1)C(=O)N1CCCCCC1 | -5.9 | 1.5 | 13.9 | 10.9 | 1.6 | 0.9 | -4.7 | i | -0.8 | 0.9
Cc1c(NC(=O)c2cn3ccccc3n2)cccc1-n1cnnn1 | -4.4 | -1.5 | 13.4 | 5.5 | 1.1 | 3.9 | -4.7 | i | 4.9 | -9.7
